TRPV1 ag: HTS Assay for Compounds that Act as Agonists of the Vanilloid Receptor 1; 0.19% of 320,000 active; AID 540275, 2011; TRPV1-expressing cells, Fluo-8 calcium influx, agonist mode; activation, % at 8.33 µM; in the data active means activation above about 80%; inconclusive means between about 30% and that limit; further: 0% is about no effect
Target sequence (Q8NER1 whole entry, looked up): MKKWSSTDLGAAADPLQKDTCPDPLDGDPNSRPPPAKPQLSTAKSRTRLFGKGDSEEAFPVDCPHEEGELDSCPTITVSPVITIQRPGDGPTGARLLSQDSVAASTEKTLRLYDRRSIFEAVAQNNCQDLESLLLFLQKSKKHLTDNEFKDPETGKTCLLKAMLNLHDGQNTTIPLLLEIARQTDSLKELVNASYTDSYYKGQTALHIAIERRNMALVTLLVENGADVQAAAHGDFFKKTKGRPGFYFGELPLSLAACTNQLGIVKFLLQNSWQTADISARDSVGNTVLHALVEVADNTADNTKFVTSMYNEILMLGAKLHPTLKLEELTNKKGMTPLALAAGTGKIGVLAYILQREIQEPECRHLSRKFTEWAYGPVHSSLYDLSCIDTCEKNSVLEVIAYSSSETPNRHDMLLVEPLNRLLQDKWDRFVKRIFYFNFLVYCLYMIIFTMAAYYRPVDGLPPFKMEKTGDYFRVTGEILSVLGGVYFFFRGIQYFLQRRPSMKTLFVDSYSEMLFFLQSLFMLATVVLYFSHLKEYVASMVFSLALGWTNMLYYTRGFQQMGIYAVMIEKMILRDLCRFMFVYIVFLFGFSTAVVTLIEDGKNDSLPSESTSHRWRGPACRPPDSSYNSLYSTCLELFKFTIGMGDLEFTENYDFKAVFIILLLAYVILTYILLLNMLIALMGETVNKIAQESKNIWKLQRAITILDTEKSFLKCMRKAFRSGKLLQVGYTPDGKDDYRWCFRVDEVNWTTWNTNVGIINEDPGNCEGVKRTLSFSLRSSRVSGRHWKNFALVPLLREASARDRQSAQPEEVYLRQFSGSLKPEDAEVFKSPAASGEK
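TRPV1-expressing cells were cultured overnight at 35.5C and loaded with Fluo-8 calcium dye for 40 to 90 min at room temperature. After a 10 s baseline, compound was added and calcium influx was read kinetically for 3 min (ex 480/em 520 nm).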
USP2a inh: qHTS Assay for Inhibitors of Ubiquitin-specific Protease USP2a Using CHOP2 as the Reporter | Ubiquitin carboxyl-terminal hydrolase 2 (Homo sapiens), O75604 | USP2 core, Ub-CHOP2 coupled fluorogenic reporter, 485/531 | Potency, µM (doses to about 38.3 µM), for the others: at the highest dose activity change, negative = inhibition, most hits filed as inhibitors | 0.01% of 330,000 active;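 further: potency means the concentration at half of the fitted maximal effect; plate controls were DMSO wells for no effect and full inhibition by NEM control for full effect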
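Deubiquitinase activity read as fluorescence (485/531 nm) after Ub-CHOP2 cleavage activates the enterokinase reporter on its substrate; USP2 core 10nM, Ub-CHOP2 and substrate 25nM each, 30min compound preincubation then 60min RT; data normalized to NEM, curves fitted.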
p53 reactivation: qHTS assay for re-activators of p53 using a Luc reporter. H1299 p53-A138V BP100-luciferase reporter, luminescence, 24 h. Potency, µM (doses to about 92.2 µM), for the others: at the highest dose activity change, positive = activation, actives largely listed as activators. 0.063% of 320,000 active. AID 504706, 2011; further: potency means the concentration at half of the fitted maximal effect; % of control where 0% means no effect; nearly all actives have a fitted effect of over 45% in size
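p53-null H1299 cells stably carrying temperature-sensitive p53-A138V and a BP100-luciferase reporter were pinned with compounds (4-point, 1:5 series) and held 24 hrs at 37 deg C. Luminescence was read 10 min after detection reagent.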
B2AR arrestin: qHTS assay of beta-arrestin-biased ligands of beta2-adrenergic receptor | Beta-2 adrenergic receptor (Homo sapiens), P07550 | Potency, µM (doses to about 46.1 µM), for inactives: at the top dose activation, usual class: activators | 0.02% of 330,000 active | beta-arrestin recruitment to beta2AR, cell-based reporter;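 further: potency means the concentration at half of the fitted maximal effect; 0% = DMSO controls and full agonism = EC100 isoproterenol or metaproterenol; nearly all actives have a fitted effect of over 65% in size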
ASM inhibitor: Inhibitors of Secretory Acid Sphingomyelinase (S-ASM): qHTS; placental ASM, HMU-PC fluorogenic substrate, 60 min; Potency, µM (series often up to 57.5 µM), for the others: top-dose activity change, negative = inhibition, usual class: inhibitors; 0.006% of 340,000 active; Sphingomyelin phosphodiesterase (Homo sapiens), P17405; further: potency means the concentration at half of the fitted maximal effect
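Human placenta-derived ASM preincubated with compound 10 min at room temperature, then reacted with 9 uM (final) fluorogenic HMU-PC substrate for 60 min at 37 C. Stop solution raises pH to 10; fluorescence read at Ex 386/Em 447 nm.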
ELG1 genotoxic: qHTS screen for small molecules that induce genotoxicity in human embryonic kidney (HEK293T) cells expressing luciferase-tagged ELG1; HEK293T ELG1-luciferase reporter, luminescence, 16 h; Potency, µM (doses to about 46 µM), for inactives: top-dose activity change, positive = activation, most hits filed as activators; 1.3% of 330,000 active; AID 504466, 2011; further: potency means the concentration at half of the fitted maximal effect; % of control where 0% means no effect; nearly all actives have a fitted effect of over 60% in size
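HEK293T cells expressing luciferase-tagged ELG1 were treated with compound or DMSO for 16 hr at 37°C. Luciferase activity was then read after 30 min with ONE-Glo at room temperature; rising signal flags genetic stress.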
BRCA1 expr up: qHTS Assay to Identify Small Molecule Activators of BRCA1 Expression; MCF7-BRCA1-FFLuc reporter, luminescence, 48 h; response scale: scaled: vehicle 0%, 10 µM genistein 100%; Potency, µM (titrated, usually from 46.1 µM), without a hit: at the highest dose activation, hits mostly activators; 1.1% of 380,000 active; further: potency means the concentration at half of the fitted maximal effect; nearly all actives have a fitted effect of over 80% in size; some results filed as inactive show a strong effect at the top dose
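Luminescence from a BRCA1-driven firefly luciferase in MCF7 cells was the read-out, taken 15 min after substrate addition following 48 h compound exposure at 37 °C. Data were normalized to a 10 microM genistein control and DMSO vehicle.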
TSG101-PTAP inh: qHTS Assay for Iinhibitors of HIV-1 Budding by Blocking the Interaction of PTAP/TSG101. 340,000 tested, under 10 active. Fluorescence polarization, FITC-PTAP peptide / Tsg101 binding. Potency, µM (doses to about 115 µM), without a hit: at the highest dose activity change, negative = inhibition, most hits filed as inhibitors. Tumor susceptibility gene 101 protein (Homo sapiens), Q99816; active means well fitted inhibition curve with a large enough effect in the main read-out, with a control signal flat, not every such curve was filed as active; inconclusive means small, poorly fitted or top-dose-only effect, or effect the other way, or a change in a side signal; inactive means no such curve, though single readings can be large or run the other way; further: potency means the concentration at half of the fitted maximal effect; % of control where 0% means no effect
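Fluorescence polarization binding of Tsg101 binding domain (10 uM final) to FITC-labeled PTAP peptide (50 nM final) in HEPES pH 7.5 buffer with NaCl, Tween 20, EDTA, TCEP. Compounds added before peptide; binding 20 min at RT.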
a7 integrin act: qHTS for Activators of Integrin-Mediated Alleviation for Muscular Dystrophy. alpha7betagal myoblasts, beta-gal FDG fluorescence, 48 h. Potency, µM (top dose mostly 38.3 µM), for inactives: at the top dose activation, hits mostly activators. 0.064% of 350,000 active. AID 624291, 2012;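 further: potency means the concentration at half of the fitted maximal effect; 100% = response of the positive control SU9516; nearly all actives have a fitted effect of over 60% in size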
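Alpha7betagal+/- myoblasts (passage 13) were plated 16-24 hr, then exposed to compounds (1:260 dilution of DMSO stock) for 48 hours at 37C. After MPER lysis, β-galactosidase reporter activity was read as FDG fluorescence (ex 480/em 540) after 30 minutes.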
uPA surface inh: qHTS for Inhibitors of Cell Surface uPA Generation; AID 540303, 2011; 0.31% of 330,000 active; Potency, µM (highest dose often 38.3 µM), for the others: at the top dose activity change, negative = inhibition, most hits filed as inhibitors; cell surface uPA generation assay, qHTS; active means well fitted inhibition curve with a large enough effect; inconclusive means small, poorly fitted or top-dose-only effect; inactive means no such curve, though single readings can be large or run the other way; tested in mouse RAW 264.7 cells; further: potency means the concentration at half of the fitted maximal effect; on the % scale 0 is the no-effect control and ±100 the full control effect; nearly all actives have a fitted effect of over 55% in size
* = called active by the depositor; ? = inconclusive; / = no result given; & = joins results of further samples; [ ] = remark or other dose. Unless noted, the call rests on the fitted dose curve; in most records, active means well fitted curve in the direction sought with a large enough effect; inconclusive means small, poorly fitted or top-dose-only effect, or another doubt; inactive means no such curve, though single readings can be large; an effect the other way counts as inactive or inconclusive.

The line under a structure holds: a7 integrin act, BRCA1 expr up, uPA surface inh, TRPV1 ag, TSG101-PTAP inh, p53 reactivation, USP2a inh, B2AR arrestin, ELG1 genotoxic, ASM inhibitor
#1 CC(=O)Nc1ccc(S(=O)(=O)Nc2cccc3cccnc23)cc1
 : -27%, -35%, -8%, -2, -4%, -3%, 1%, -1.4%, 0%, -2%
#2 CCC[C@@H]1C[C@@H](C(=O)NC(C(C)Cl)[C@H]2O[C@H](SC)[C@H](O)[C@@H](O)[C@H]2O)N(C)C1 (stereo partly specified)
 : /, -23%, 5%, 0, 2%, /, -1%, 0.0%, 0%, -2%
#3 O=C(COC(=O)c1ccc(O)cc1O)Nc1nnc(-c2ccccc2)o1
 : 4%, -4%, -3%, -3, -2%, -1%, -4%, 0.2%, 3%, -2%
#4 O=C(CSc1nnc(-c2ccccn2)o1)Nc1ccccc1F
 : 12%, ?, -25%, 2, /, ?, 2%, -0.3%, ?, 1%
#5 Cc1nnc2ccc(-c3cccc(NC(=O)c4ccco4)c3)nn12
 : 1%, -26%, -2%, 1, -4%, 3%, 1%, 0.2%, 4%, -9%
#6 Cc1cc(C)cc(NC(=O)CSc2ccc(-c3ccccn3)nn2)c1
 : -21%, -75%, -9%, -2, 0%, -5%, -1%, -1.1%, ?, /
#7 COc1ccc(C(=O)N/N=C/c2cc3ccccc3[nH]c2=S)cc1
 : -15%, -21%, -2%, 3, -7%, -3%, 0%, -0.2%, 0%, -9%
#8 COc1ccc(/C=C2\CCCc3c2nc2ccc(C)cc2c3C(=O)O)cc1O
 : -3%, -3%, 0%, -1, -2%, 1%, 3%, -0.4%, 0%, 48%[activator]
#9 COc1ccc(/C=C/C(=O)NC(=S)NNC(=O)c2cnccn2)cc1
 : 19%, -74%, ?, -3, 9%, 16%, 3%, -1.0%, ?, 0%
#10 CCC/C=N/Nc1nnc(Cc2ccccc2)c(=O)[nH]1
 : -11%, -35%, 2%, -3, -3%, -1%, 4%, 0.2%, -3%, 2%
#11 O=C(CSc1nnc(-c2ccccn2)o1)Nc1cccc(Cl)c1
 : 23%, ?, 2%, 1, -7%, ?, 2%, -0.2%, 6%, -1%[11.5 µM]
#12 N#Cc1cc([N+](=O)[O-])ccc1Oc1cccc(/C=N/NC(=O)c2cccc(Cl)c2)c1
 : -36%, -79%[inhibitor], -9%, -1, -4%, 1%, 5%, 0.5%, -2%, -8%
#13 O=C(CCN1C(=O)C2C3C=CC(C4CC34)C2C1=O)Oc1cccc2cccnc12 (stereo unspecified)
 : -57%[inhibitor], -36%, -7%, 0, -1%, 1%, 4%, -0.1%, -1%, 4%
#14 Cc1ccc(C(=O)Oc2ccc(Cl)c3cccnc23)cc1[N+](=O)[O-]
 : -35%, -15%, -4%, -3, -2%, 1%, 2%, ?, -4%, 3%
#15 COc1cnc(-c2ccccn2)nc1Sc1ccccc1
 : -56%[inhibitor], -67%, 1%, -3, -4%, -1%, 2%, -0.2%, -12%, -1%
#16 O=C(CSc1ccc2nnc(-c3ccccn3)n2n1)NCc1ccco1
 : 22%, 0%, -23%, 2, 1%, 10%, 2%, -1.0%, 0%, 5%
#17 COc1cnc(-c2ccccn2)nc1NC(C)C
 : -42%, -78%, -12%, -2, -2%, ?, 2%, 0.1%, 13%, 5%
#18 Cc1cc(NC(=O)CSc2nnc(-c3ccc([N+](=O)[O-])cc3)o2)no1
 : 14%, 25%, -8%, -5, -3%, -4%, -1%, -0.9%, 2%, 5%
#19 COc1cc2nc(N3CCN(C(=O)C4CCCO4)CC3)nc(N)c2cc1OC (stereo unspecified)
 : /, 0%&-18%, -4%&19%, -2&-1&-3, -2%&-2%, 6%&4%, 3%&5%&7%, -0.9%&-0.2%&0.2%, 15%&9%, 185%&162%[activator]
#20 COc1ccccc1Sc1nc(-c2ccccn2)ncc1OC
 : -28%, -58%, -1%, 0, -7%, 27%, 1%, 0.5%, -11%, 1%
#21 COc1cc2nc(N3CCN(C(=O)[C@@H]4CCCO4)CC3)nc(N)c2cc1OC
 : /, -8%, 0%, -5, 1%, /, 0%, -0.5%, 9%, 76%[activator]
#22 Cn1cc(Cl)c(C(=O)N/N=C/c2ccc(OS(=O)(=O)c3ccccc3)cc2)n1
 : 14%, -18%, /, ?, -1%, -22%, 9%, 0.4%, -9%, -2%
#23 CN(C)S(=O)(=O)c1cccc(NC(=O)CNCc2ccccn2)c1
 : 9%, 0%, 7%, -5, 0%, 0%, -2%, -0.1%, -2%, -1%
#24 COc1ccccc1NS(=O)(=O)c1cccc(C(=O)N/N=C/c2c(CO)cnc(C)c2O)c1
 : 3%, -65%, -49%, 8, 0%, 6%, 7%, 0.1%, 13%, -5%

By substructure, the compounds so far with a halogen (6)
The line under a structure holds: a7 integrin act, BRCA1 expr up, uPA surface inh, TRPV1 ag, TSG101-PTAP inh, p53 reactivation, USP2a inh, B2AR arrestin, ELG1 genotoxic, ASM inhibitor
#2 CCC[C@@H]1C[C@@H](C(=O)NC(C(C)Cl)[C@H]2O[C@H](SC)[C@H](O)[C@@H](O)[C@H]2O)N(C)C1 (stereo partly specified)
 : /, -23%, 5%, 0, 2%, /, -1%, 0.0%, 0%, -2%
#4 O=C(CSc1nnc(-c2ccccn2)o1)Nc1ccccc1F
 : 12%, ?, -25%, 2, /, ?, 2%, -0.3%, ?, 1%
#11 O=C(CSc1nnc(-c2ccccn2)o1)Nc1cccc(Cl)c1
 : 23%, ?, 2%, 1, -7%, ?, 2%, -0.2%, 6%, -1%[11.5 µM]
#12 N#Cc1cc([N+](=O)[O-])ccc1Oc1cccc(/C=N/NC(=O)c2cccc(Cl)c2)c1
 : -36%, -79%[inhibitor], -9%, -1, -4%, 1%, 5%, 0.5%, -2%, -8%
#14 Cc1ccc(C(=O)Oc2ccc(Cl)c3cccnc23)cc1[N+](=O)[O-]
 : -35%, -15%, -4%, -3, -2%, 1%, 2%, ?, -4%, 3%
#22 Cn1cc(Cl)c(C(=O)N/N=C/c2ccc(OS(=O)(=O)c3ccccc3)cc2)n1
 : 14%, -18%, /, ?, -1%, -22%, 9%, 0.4%, -9%, -2%

Source: PubChem (National Center for Advancing Translational Sciences (NCATS))

An excerpt, so the mix of outcomes need not match the whole.
